Arbovirus anti: antivirals against arbovirus infection, primary screen, cell-based, full library, 10K replicate subset; inhibition, % at 10 µM; arbovirus infection cell-based antiviral screen; 200,000 compounds, 0.37% hits;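 active means inhibition from about 30%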;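 further: bluetongue infection of BSR cells; cell survival read as ATP light after 72 h; 0% = infected wells without compound and 100% = uninfected wells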
Mtb betalactam: beta-lactam sensitization of Mtb H37Rv, H37Rv. M. tuberculosis H37Rv growth with meropenem, percent inhibition; hits of this screen are not shown here. inhibition, % at 25 µM. 330,000 compounds, 0.27% hits;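 active means about 74% or more and at least 40 points above the plate without the antibiotic, then above 30% in a dose series; inconclusive means first-round hits that could not be retested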;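 further: growth measured after seven days incubation then overnight dye step; 0% = bacteria only wells and 100% = bacteria with antibiotic; twin plates without the antibiotic show which effects depend on it; some results filed as inactive read as strong as hits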
Mtb growth: M. tuberculosis H37Rv growth inhibitors, H37Rv strain (AID 1626) | M. tuberculosis H37Rv growth inhibition; higher % means a stronger effect | inhibition, % at 10 µM; hits with a dose series show IC50 in µM | 220,000 compounds, 0.95% hits;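 active means confirmed in a dose series; inconclusive means inhibition above 80% but not taken into the dose series; inactive means below 80% or under 30% at every dose of the series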;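 further: bacteria incubated seven days before Alamar blue readout; 0% = bacteria only wells and 100% = bacteria with antibiotic wells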
YopH PTP inh: YopH tyrosine phosphatase inhibitors, primary screen, biochemical, fluorescence Ex485/Em525 | YopH tyrosine phosphatase [Yersinia enterocolitica] | inhibition, %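 (about 10 µM by stock and volumes)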 | 140,000 compounds, 0.16% hits;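 active means inhibition of 50% or more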;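 further: controls were vehicle for no effect and minimum signal wells for full effect; inactives centre near -20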
RecA splice inh: Mtb RecA intein splicing inhibitors, primary screen, biochemical, fluorescence, HTS. 290,000 compounds, 0.75% hits. cell-free RecA intein splicing. inhibition, %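 (about 9 µM by stock and volumes)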; in the data active means inhibition above about 30%; inconclusive means no clear call, values can overlap the other calls;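 further: 0% = vehicle wells and 100% = reference inhibitor control wells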
Target sequence (P9WHJ3 whole entry, looked up, canonical isoform): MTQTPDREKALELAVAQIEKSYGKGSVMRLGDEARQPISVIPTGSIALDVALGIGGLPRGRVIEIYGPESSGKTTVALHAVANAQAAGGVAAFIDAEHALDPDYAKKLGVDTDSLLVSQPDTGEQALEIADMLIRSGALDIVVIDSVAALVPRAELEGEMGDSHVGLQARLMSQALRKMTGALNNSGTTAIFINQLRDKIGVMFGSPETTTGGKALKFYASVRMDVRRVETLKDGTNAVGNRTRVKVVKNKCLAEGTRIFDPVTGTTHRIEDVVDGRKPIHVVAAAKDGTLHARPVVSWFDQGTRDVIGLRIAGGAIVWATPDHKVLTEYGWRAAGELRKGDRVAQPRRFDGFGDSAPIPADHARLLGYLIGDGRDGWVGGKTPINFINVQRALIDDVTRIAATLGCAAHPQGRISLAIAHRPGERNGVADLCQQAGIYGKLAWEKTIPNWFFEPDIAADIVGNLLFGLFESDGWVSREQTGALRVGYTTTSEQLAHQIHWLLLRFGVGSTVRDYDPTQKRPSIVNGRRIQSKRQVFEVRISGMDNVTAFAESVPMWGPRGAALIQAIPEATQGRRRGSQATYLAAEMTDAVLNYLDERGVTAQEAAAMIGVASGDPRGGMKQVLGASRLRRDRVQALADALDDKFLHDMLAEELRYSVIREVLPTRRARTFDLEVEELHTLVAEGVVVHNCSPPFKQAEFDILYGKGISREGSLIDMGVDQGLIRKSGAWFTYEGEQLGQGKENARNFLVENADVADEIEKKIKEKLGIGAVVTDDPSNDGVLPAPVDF
Arbovirus anti repeat: recorded beside Arbovirus anti, whose call it bears; inhibition, %; measured here: 10K subset replicate screen; many hits read low in the repeat;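 first of two repeat runs on a subset; 0% = infected and 100% = uninfected wells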
* marks the source's active call; other numbers are inactive results; ? = inconclusive; . = no result given.

SMILES	Arbovirus anti	Mtb betalactam	Mtb growth	YopH PTP inh	RecA splice inh	others
CCOc1ccc(N(CC(=O)O)S(=O)(=O)c2cccnc2)cc1	0	7	3%	-49	0.0	Arbovirus anti repeat=3
O=C(COc1nsnc1N1CCOCC1)N/N=C/c1ccccc1O	-7	2	-10%	-43	-7.9
CC(=O)CC(C)(C)n1c[n+](C)nn1	6	-3	-9%	-40	2.5
Nc1[nH]nc2nc(-c3ccccc3)[nH]c(=O)c12	.	2	-8%	.	2.3
Cc1cccc(CC(=O)NCC2CCCCC2)c1	.	-6	.	.	0.6
COc1cccc2sc(=NC(=O)CS(=O)(=O)c3ccc(F)cc3)n(C)c12	.	-6	.	.	11
CC(C)c1nc(-c2ccccn2)no1	-2	-2	-5%	-54	-0.7
O=c1oc2ccccc2c(O)c1C=Nc1cccnc1	11	-2	-5%	.	1.3
Cc1ccc(C(=O)NNC(=O)CSc2nnc(C3CC3)n2C)cc1	.	-11	.	.	-4.2
O=C(c1cc(F)ccc1F)C1CCCN(C(=O)CCCN2CCCCC2=O)C1 (stereo not drawn)	0	-5	-5%	.	-1.6
CC(C)(C)C#CC(CCc1ccccc1)OS(N)(=O)=O (stereo not drawn)	.	-7	.	.	0.6
O=C(CCOc1ccccc1)NCC(c1ccco1)N1CCCCC1 (stereo not drawn)	10	-10	0%	-45	-0.9
COc1ccc(OC)c(NS(=O)(=O)c2ccc(Cl)s2)c1	0	3	5%	-27	3.2
NC(=O)NC(=O)CC1S/C(=N/N=C2\CSC(=O)N2)NC1=O (stereo not drawn)	-7	-1	-5%	.	-4.3
Cc1ccc(N(C(=O)c2sc(C)nc2C)C(C(=O)NC(C)(C)C)c2ccncc2)cc1 (stereo not drawn)	-6	0	-1%	.	0.4
CN1CCN(CCn2c(=S)[nH]c3ccccc3c2=O)CC1	.	-3	.	.	-0.5
Cc1c(C(=O)NCC2CCCO2)sc2nc(-c3ccc(F)cc3)cn12 (stereo not drawn)	-10	6	6%	-21	0.9	Arbovirus anti repeat=-3
O=C(NCc1cccnc1)C1c2ccccc2C(=O)N1Cc1ccccc1 (stereo not drawn)	4	10	-1%	-46	4.0
C=CCNC(=O)C(=O)NN=C1CCN(C)CC1	8	5	-12%	-15	2.1
COc1ccc(CCNC(=O)CSc2nc(O)c(CCC(C)C)c(=O)[nH]2)cc1OC	6	2	-2%	-40	0.4
O=C(Nc1nc(-c2cccs2)cs1)c1ccc(S(=O)(=O)N2CCCCC2)cc1	24	8	4%	-1	2.4	Arbovirus anti repeat=3
CCCN(C(=O)CSCc1ccccc1C)c1c(N)n(Cc2ccccc2)c(=O)[nH]c1=O	.	-1	.	.	-0.7
CCOC(=O)C1CCCN(CCSc2ccc(C)cc2)C1 (stereo not drawn)	.	-6	.	.	0.2
C/C(=N/NC(=O)COc1cc(C)ccc1C(C)C)C(=O)O	-12	0	2%	.	1.6
CCOc1ccc(CCNC(=O)c2nn(C)c3c2CS(=O)(=O)c2ccccc2-3)cc1	.	3	.	.	2.0
CCOc1ccccc1NC(=O)NCc1ccccc1	-1	-1	4%	.	0.3
Cc1ccc(O)c(CNCCNCc2cc(C)ccc2O)c1	.	-7	.	.	0.0
CC(C)C(=O)Nc1c2c(nn1-c1ccccc1)CSC2	.	-3	.	.	2.5
O=c1cc(N2CCN(Cc3ccccc3)CC2)c(-c2ccccc2)n[nH]1	9	-2	-2%	-23	.
CCCCc1ccc(NC(=O)C2CCN(S(C)(=O)=O)CC2)cc1	4	63	63%	-24	-2.7

Entries listed so far containing four or more nitrogen atoms, in the order listed:
SMILES	Arbovirus anti	Mtb betalactam	Mtb growth	YopH PTP inh	RecA splice inh	others
O=C(COc1nsnc1N1CCOCC1)N/N=C/c1ccccc1O	-7	2	-10%	-43	-7.9
CC(=O)CC(C)(C)n1c[n+](C)nn1	6	-3	-9%	-40	2.5
Nc1[nH]nc2nc(-c3ccccc3)[nH]c(=O)c12	.	2	-8%	.	2.3
Cc1ccc(C(=O)NNC(=O)CSc2nnc(C3CC3)n2C)cc1	.	-11	.	.	-4.2
NC(=O)NC(=O)CC1S/C(=N/N=C2\CSC(=O)N2)NC1=O (stereo not drawn)	-7	-1	-5%	.	-4.3
Cc1ccc(N(C(=O)c2sc(C)nc2C)C(C(=O)NC(C)(C)C)c2ccncc2)cc1 (stereo not drawn)	-6	0	-1%	.	0.4
CN1CCN(CCn2c(=S)[nH]c3ccccc3c2=O)CC1	.	-3	.	.	-0.5
C=CCNC(=O)C(=O)NN=C1CCN(C)CC1	8	5	-12%	-15	2.1
CCCN(C(=O)CSCc1ccccc1C)c1c(N)n(Cc2ccccc2)c(=O)[nH]c1=O	.	-1	.	.	-0.7
O=c1cc(N2CCN(Cc3ccccc3)CC2)c(-c2ccccc2)n[nH]1	9	-2	-2%	-23	.

Next section:
SMILES	Arbovirus anti	Mtb betalactam	Mtb growth	YopH PTP inh	RecA splice inh	others
CCCCn1c(=O)n(CC(O)c2ccccc2)c(=O)c2c1ncn2C1CCCC1 (stereo not drawn)	-4	-2	0%	11	0.4
Cc1cccc(CSCCNC(=O)CN2C(=O)c3ccccc3S2(=O)=O)c1	.	-3	.	.	0.2
O=c1c2ccccc2nc(-c2ccc(Cl)cc2Cl)n1CCCn1ccnc1	3	-8	-2%	0	-2.4
COc1ccc(C)cc1N(CC(=O)NC1CCCC1)C(=O)CCC(=O)Nc1cc(C)on1	3	-6	9%	-38	-1.0
Cc1ccc(N2CCN(S(=O)(=O)N3CCCCC3)CC2)cc1C	10	-8	-10%	.	1.9
O=C(NCCc1ccc(O)cc1)c1ccc(Cl)cc1	-7	74	-3%	-13	0.9
CCN(CC)c1ccc(NC(=O)CCc2nnc3ccc(N4CCCC4)nn23)c(C)c1	.	?	.	.	-4.3
COc1ccc(N=C2SCC(=O)N2Cc2ccccc2)cc1	5	11	14%	.	1.2
COc1ccc(NC(=S)NCCCc2ccccc2)cc1	11	5	7%	-24	-2.9
O=C(Cc1ccccc1)NNS(=O)(=O)c1ccc([N+](=O)[O-])cc1	3	3	11%	-23	0.2
O=C(CN1CCN(CCO)CC1)Nc1ccc(Cl)cc1C(=O)c1ccccc1	-4	-14	10%	-2	-0.1
Cc1cc(=O)[nH]c(Nc2cccc(Cl)c2C)n1	.	5	.	.	0.3
COC(=O)c1sc(N2CCN(Cc3ccccc3)CC2)nc1N	.	3	.	.	-0.1
O=C(Cn1c(=O)c2c3c(sc2n(Cc2ccccc2)c1=O)CCCC3)NCCO	.	-5	.	.	0.7
O=C(NCc1ccco1)c1ccc(NC(=O)C2COc3ccccc3O2)cc1 (stereo not drawn)	3	6	9%	6	2.6
CCOc1cc(C(=O)N[C@@H](C)C(=O)N2CCC3(CC2)NCCc2[nH]cnc23)cc(OCC)c1OCC	.	-7	.	.	1.2
CN(C)CCNC(=O)/C(=C/c1ccc(-c2cccc([N+](=O)[O-])c2)o1)NC(=O)c1ccccc1	-17	0	3%	-13	1.8
CC(=O)c1cccc(NC(=O)C2C3C=CC(C4CC34)C2C(=O)O)c1 (stereo not drawn)	14	-1	0%	-24	5.6
CCCc1cc(NCCCN(C)C)n2c(nc3ccccc32)c1C#N	.	11	.	.	-127
COc1ccc(NC(=O)C2CCCCN2S(=O)(=O)c2ccc(F)cc2)c(OC)c1 (stereo not drawn)	2	3	-4%	-10	5.5
CC(OC(=O)Cc1n[nH]c(=O)c2ccccc12)C(=O)Nc1cccc([N+](=O)[O-])c1 (stereo not drawn)	8	2	-6%	.	1.8
CSCCC(NS(=O)(=O)c1cccs1)C(=O)NCc1ccc(C)cc1 (stereo not drawn)	7	?	1%	-17	-0.8
CN(C(=O)CSc1nnc(Nc2ccccc2)s1)C1CCS(=O)(=O)C1 (stereo not drawn)	9	8	1%	.	-0.7
COc1ccc(CC(=O)Nc2ccc(/C(C)=N/NC(=O)c3cccc([N+](=O)[O-])c3)cc2)cc1	-7	-7	-3%	-25	6.8
COc1cccc(-n2nc(-c3ccnn3-c3cccc(Cl)c3)c(=O)n(C)c2=O)c1	.	-9	.	.	-2.3
Cc1cccc(C(=O)Nc2nnc(S(=O)(=O)N3CCC(C)CC3)s2)c1	.	2	.	.	-2.8
CC1CCCN(Cc2nc3c(c(=O)n(C)c(=O)n3C)n2CCc2ccccc2)C1 (stereo not drawn)	5	-2	-3%	-2	0.7
COC(=O)c1ccccc1NC(=O)CNc1cc(OC)c(OC)cc1C	3	2	11%	-10	-4.1
COc1cc(CC(=O)OCC(=O)Nc2ncc(Cl)cc2Cl)cc(OC)c1OC	-2	-16	-1%	-36	1.7
CC(=O)/C(=N\Nc1ccccc1Cl)Sc1nnc(-c2ccccc2)n1-c1ccccc1	-16	0	6%	-7	1.3
CC(=O)Nc1ccc(NC=C(C#N)C#N)cc1	.	-3	0%	.	-1.3
Cc1sc(-c2c(C#N)c(N)nc3c2CCCCCC3)cc1[N+](=O)[O-]	.	-1	.	.	0.6
CCOC(=O)Cc1csc(/C(=N/O)C(N)=O)n1	13	7	-4%	-11	-0.5
O=C(CN1CCCCC1)Nc1nc(-c2ccccc2)cs1	.	66	.	.	0.2
Cc1cc(C(=O)NN)c(Cl)cc1Cl	.	45	3%	.	1.0
CCOC(=O)c1ccccc1OCc1cc(/C=N/NC(=O)c2ccncc2)ccc1OC	.	98	?	.	-1.1
CCc1ccc(NC(=O)CC2C(=O)N(c3cccc(OC)c3)C(=O)N2CCOC)cc1 (stereo not drawn)	.	-3	.	.	-4.1
C=CCn1c(C(CC)CC)nc2ccccc21	.	-8	.	.	3.2
Cc1ccccc1CNC(=O)C1CCCN(c2nnc(C)c3c(C)n(-c4ccccc4)nc23)C1 (stereo not drawn)	.	-3	.	.	-0.4
CCCCCCOc1ccc(/C=N/NC(=O)C2CC2)cc1	.	29	.	.	-1.1
COc1ccccc1N1CCN(C(=O)Oc2ccccc2)CC1	-5	-2	-1%	-9	2.4
Cc1noc(NS(=O)(=O)c2ccc(NC(=O)CSc3nc4c(cc3C#N)CCCCC4)cc2)c1C	29	42	-2%	-10	-6.1
c1ccc(CCn2nnnc2CN2CCN(C3CCCC3)CC2)cc1	-1	8	-4%	-10	0.6
C=CCNC(=O)/C(=C\c1ccc(OC)cc1)NC(=O)c1ccc([N+](=O)[O-])cc1	2	4	11%	.	-0.8
Cc1ccccc1-n1c(SCC(=O)Nc2ccccc2Cl)nc2n[nH]c(C)c2c1=N	.	3	.	.	-3.6
COc1ccc(C2/C=C\CN(S(=O)(=O)c3ccc(C)cc3)[C@H](Cc3ccccc3)C(=O)N2Cc2ccc(F)cc2)cc1 (stereo partly drawn)	.	-21	2%	.	0.3
COc1ccc(-c2oc3ncn4nc(Cc5ccccc5)nc4c3c2-c2ccc(OC)cc2)cc1	-1	2	-5%	-10	-1.4
CCOc1ccc(OCC)c(NC(=O)C2CCN(c3nn4c(=O)cc(C)nc4s3)CC2)c1	-8	-11	-6%	-1	-1.0
CC(c1ccon1)N(C)Cc1c(C(=O)N(C)Cc2ccccc2)nc2ccccn12 (stereo not drawn)	-8	-6	6%	.	0.6
COc1ccc(N(C(=O)COc2cccc(C)c2)S(=O)(=O)c2ccc(C)cc2)cc1	1	5	-1%	-30	52*
Later entries
SMILES	Arbovirus anti	Mtb betalactam	Mtb growth	YopH PTP inh	RecA splice inh	others
CCOC(=O)N1CCC(NC(=O)Cn2cccc2C(=O)c2ccccc2C)CC1	-7	-4	-17%	-37	-0.4
Nc1nc(SCC(=O)c2cc3ccccc3o2)n[nH]1	-4	0	-4%	.	-5.5
CCn1c2ccccc2c2cc(/C=N/n3cn[nH]c3=S)ccc21	1	80	-8%	-97	-1.9
CCc1ccc(S(=O)(=O)N(C(=O)c2ccncc2)c2ccc(OC(=O)c3ccncc3)cc2)cc1	-2	-1	7%	-8	-2.3

Assay outcomes as filed in PubChem BioAssay.

Only part of the results is shown. The share of hits here may be higher or lower than overall.
